Source: PubChem BioAssay (Broad Institute)
AF4-AF9 inh = inhibitors of human MLL-AF4/AF9 interaction. inhibition, % at 10 µM. AID 651704. actives 0.47% (n = 350,000). AlphaScreen, biotin-AF4 peptide binding to FLAG-AF9;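 active means every replicate reaching a set inhibition limit, whatever the replicate mean, cut at about 25% in these data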;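 further: 0% = plate neutral control median and 100% = total signal loss; the record names both 10 and 1 µM as test concentration; the first replicate is given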
Target sequence (P42568 whole entry, looked up): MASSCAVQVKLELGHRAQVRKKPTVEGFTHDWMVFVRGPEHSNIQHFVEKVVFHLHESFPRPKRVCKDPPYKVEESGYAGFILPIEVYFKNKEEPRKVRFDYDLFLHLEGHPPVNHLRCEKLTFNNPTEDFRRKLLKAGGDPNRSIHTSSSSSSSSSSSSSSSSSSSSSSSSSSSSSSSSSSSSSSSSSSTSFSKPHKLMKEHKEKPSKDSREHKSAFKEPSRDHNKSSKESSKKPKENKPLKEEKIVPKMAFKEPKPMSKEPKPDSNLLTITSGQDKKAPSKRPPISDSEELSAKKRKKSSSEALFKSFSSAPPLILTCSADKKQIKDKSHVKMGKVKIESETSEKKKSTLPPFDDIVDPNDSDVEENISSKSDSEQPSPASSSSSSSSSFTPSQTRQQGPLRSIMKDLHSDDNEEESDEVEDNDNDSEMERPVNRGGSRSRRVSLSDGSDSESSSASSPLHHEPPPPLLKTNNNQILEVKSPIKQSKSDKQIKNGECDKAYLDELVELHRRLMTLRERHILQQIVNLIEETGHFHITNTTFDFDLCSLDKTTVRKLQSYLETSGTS
Ecoli rRNA inh = selective bacterial rRNA inhibition in E. coli; E. coli WT GFP vs humanized-ribosome RFP mutants, fluorescence, 24 h; hits give low values; DMSO median 0, no signal -100; GFP signal change (wild-type ribosome), % (test concentration not listed); actives 1.6% (n = 350,000); AID 720706;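 active means significant combined selectivity score with lowered wild-type GFP, culture density cut under 30%, mutant RFP and density less affected; inactive means any of these conditions unmet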; further: one replicate is shown; some compounds called inactive have numbers as strong as hits
Ecoli rRNA inh OD600 = further read-out of Ecoli rRNA inh, marked with its call; OD600 change, %; measured here: OD600 growth;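 optical density of the mix in the first replicate; 0 = DMSO median and -100 = no signal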
Ecoli rRNA inh RFP = further read-out of Ecoli rRNA inh, marked with its call; RFP signal change, %; measured here: RFP humanized mutant strains;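 first replicate; 0 = DMSO median and -100 = no signal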
An asterisk follows results filed as active; & = joins results of further samples. A portion of the library; count on the stated rates, not on these rows.

Sample of the layout, 3 compounds:
item	molecule	AF4-AF9 inh	Ecoli rRNA inh
1	COCC(=O)N1CC(=O)N2[C@H](C1)[C@@H](c1ccc(C#Cc3cccnc3)cc1)[C@@H]2CO	-4.5	-0.2
2	COP(=O)(OC)OC(C(=O)c1ccccc1)c1ccc(Cl)cc1 (configuration not stated)	-0.8	-7.2
3	C[C@H](CO)N1C[C@H](C)[C@H](CN(C)Cc2cccc(F)c2)Oc2cc(-c3ccccc3)ccc2S1(=O)=O	1.4	0.5

item	Ecoli rRNA inh OD600	Ecoli rRNA inh RFP
1	3.2	0.1
2	-7.2	-1.0
3	-1.8	-1.5

All compounds of this part, from the start:
item	molecule	AF4-AF9 inh	Ecoli rRNA inh
1	COCC(=O)N1CC(=O)N2[C@H](C1)[C@@H](c1ccc(C#Cc3cccnc3)cc1)[C@@H]2CO	-4.5	-0.2
2	COP(=O)(OC)OC(C(=O)c1ccccc1)c1ccc(Cl)cc1 (configuration not stated)	-0.8	-7.2
3	C[C@H](CO)N1C[C@H](C)[C@H](CN(C)Cc2cccc(F)c2)Oc2cc(-c3ccccc3)ccc2S1(=O)=O	1.4	0.5
4	O=C(Nc1ccc(N2CCOCC2)cc1)c1csc([C@@H]2C[C@H](O)[C@@H](CO)O2)n1	2.2	6.9
5	C/C=C/c1ccc([C@H]2[C@@H](CO)N3C(=O)CN(C(=O)Nc4ccc(F)cc4)C[C@H]23)cc1	-2.2	2.4
6	COc1ccc(NC(=O)Nc2cccc3c2O[C@H](CN(C)S(=O)(=O)c2ccc(Cl)cc2)[C@@H](C)CN([C@H](C)CO)C3=O)cc1	-1.2	-5.1
7	C[C@@H]1CN([C@@H](C)CO)C(=O)c2c(c3ccccc3n2C)-c2ccccc2CO[C@@H]1CN(C)Cc1ccc(F)cc1	2.3	-2.0
8	CCCNC(=O)N(C)C[C@@H]1Oc2cc(C#CC3CC3)ccc2S(=O)(=O)N([C@H](C)CO)C[C@H]1C	-0.1	-5.0
9	COC(=O)C[C@H]1CC[C@@H]2[C@H](COc3ccc(NC(=O)c4cc(C)on4)cc3C(=O)N2C)O1	-1.5	-2.0
10	COc1ccccc1CNC(=O)C[C@@H]1C[C@@H]2c3cc(NC(=O)C4CCC4)ccc3O[C@@H]2[C@H](CO)O1	-0.8	-0.2
11	CCCCCCCN(c1ccccc1)[C@@H]1C[C@H]2CCCC(=O)N3CC[C@@H](C1)[C@@H]23	14.2	-7.2
12	COc1ccc(NC(=O)Nc2cccc3c2O[C@H](CN(C)Cc2ccc4c(c2)OCO4)[C@H](C)CN([C@@H](C)CO)C3=O)cc1	-8.8	0.5

item	Ecoli rRNA inh OD600	Ecoli rRNA inh RFP
1	3.2	0.1
2	-7.2	-1.0
3	-1.8	-1.5
4	14.9	-3.0
5	-4.7	2.4
6	-10.6	-0.5
7	0.5	6.2
8	-19.2	-2.5
9	0.6	-0.6
10	-9.1	-2.4
11	-12.6	-0.1
12	3.0	-0.3

Additional entries
item	molecule	AF4-AF9 inh	Ecoli rRNA inh
13	NC(Cc1ccc(F)cc1)c1csc(Nc2ccc(C(=O)NCCCO)cn2)n1 (configuration not stated)	1.3	-2.2
14	C=CCCC1CN(Cc2ccc(OC)cc2)S(=O)(=O)c2c(NCc3cc(OC)c(OC)c(OC)c3)cccc2O1 (configuration not stated)	0.7	2.8
15	CN1C[C@H]2[C@@H](c3ccccc31)[C@H](CO)N2C(=O)CN1CCOCC1	-1.1	1.1
16	C[C@@H]1CCCCO[C@@H](CN(C)Cc2ccncc2)[C@@H](C)CN([C@@H](C)CO)C(=O)c2cc(NC(=O)c3ccncc3)ccc2O1	-6.3	7.7
17	CCCNC(=O)[C@@H]1[C@@H](CO)[C@@H]2Cn3c(cccc3=O)[C@H]1N2C(=O)C1CCCC1	-2.3	0.1
18	O=C(C[C@H]1CC[C@@H]2[C@H](COC[C@@H](O)CN2Cc2ccncc2)O1)NCc1ccccc1Cl	3.5	-1.1
19	CCCNC(=O)N(C)C[C@@H]1Oc2ncc(C#CCc3ccccc3)cc2C(=O)N([C@@H](C)CO)C[C@H]1C	-0.8	2.5
20	COc1ccc(-c2ccc([C@@H]3[C@H]4CN(CC5CCOCC5)CCCCN4[C@H]3CO)cc2)cc1	2.0	1.1
21	C[C@H]1CN([C@@H](C)CO)C(=O)Cc2cc(NC(=O)C3CC3)ccc2O[C@H]1CN(C)S(=O)(=O)c1cccs1	-4.1	-2.8
22	O=S(=O)(c1cccc(Br)c1)N1CCN(c2ncnc3scc(-c4ccccc4)c23)CC1	-0.5	12.3
23	CNC(=O)C[C@@H]1CC[C@H]2[C@@H](COc3ccc(NC(=O)Nc4ccc(F)c(F)c4)cc3C(=O)N2C)O1	-0.1	-4.8
24	C[C@@H]1CN([C@H](C)CO)C(=O)c2cccc(NC(=O)NC3CCCCC3)c2O[C@@H]1CN(C)S(=O)(=O)c1ccc(Cl)cc1	-0.3	-4.1

item	Ecoli rRNA inh OD600	Ecoli rRNA inh RFP
13	0.1	-3.3
14	2.9	0.3
15	7.7	-1.8
16	8.3	0.4
17	3.8	-2.3
18	8.0	-4.4
19	-2.8	-0.3
20	-2.1	2.0
21	-2.2	1.0
22	5.7	-2.0
23	-0.8	0.0
24	-1.6	-0.9

Other results follow.
item	molecule	AF4-AF9 inh	Ecoli rRNA inh
25	CCC(=O)N1CC(=O)N2[C@H](C1)[C@@H](c1ccc(C#CCc3ccccc3)cc1)[C@@H]2CO	-4.5	1.7
26	COc1ccccc1NC(=O)N[C@H]1CC[C@@H](CC(=O)N[C@H](C)c2ccccc2)O[C@@H]1CO	-3.0	2.0
27	CC1(C(=O)NS(=O)(=O)c2cccc(OC(F)F)c2)CCN1C(=O)c1cccc(F)c1 (configuration not stated)	-1.5	0.1
28	COc1ccc(NC(=O)N(C)C[C@H]2Oc3c(NC(=O)C4CCCCC4)cccc3C(=O)N([C@@H](C)CO)C[C@H]2C)cc1	0.4	-0.8
29	C[C@H](CO)N1C[C@H](C)[C@@H](CN(C)CC2CC2)OCc2cnnn2CCCC1=O	0.3&-0.2	9.8&0.7
30	COc1ccc(S(=O)(=O)N(C)C[C@@H]2Oc3c(NC(=O)C4CC4)cccc3C(=O)N([C@@H](C)CO)C[C@H]2C)cc1	-1.6	-4.7
31	C[C@@H]1CN([C@H](C)CO)C(=O)CCCn2cc(nn2)CO[C@H]1CN(C)C(=O)C1CCCCC1	0.4&1.2&0.9	3.4&11.2
32	CC(C)NC(=O)Nc1cccc2c1O[C@H](CN(C)S(=O)(=O)c1ccccc1)[C@H](C)CN([C@@H](C)CO)C2=O	-2.3	4.2
33	COC(=O)C[C@H]1CC[C@@H]2[C@H](COc3ccc(NS(=O)(=O)c4ccc(F)cc4)cc3C(=O)N2C)O1	-5.9	-6.5
34	C[C@H]1CN([C@@H](C)CO)C(=O)Cc2cc(NS(=O)(=O)c3ccc(Cl)cc3)ccc2O[C@H]1CN(C)Cc1ccc(Cl)c(Cl)c1	-0.6	2.7
35	COCC(=O)N(C)C[C@@H]1[C@@H](c2ccc(-c3cccnc3)cc2)[C@H](CO)N1C(C)=O	-2.9	0.5
36	COc1ccccc1CNC(=O)C[C@H]1C[C@H]2c3cc(NC(=O)Cc4ccncc4)ccc3O[C@H]2[C@H](CO)O1	-6.3	-4.7

item	Ecoli rRNA inh OD600	Ecoli rRNA inh RFP
25	-3.8	0.4
26	3.9	1.1
27	2.8	-2.4
28	8.6	0.6
29	13.5&-3.6	-1.1&-3.9
30	-1.1	-0.7
31	6.5&20.7	-1.7&3.4
32	3.7	-2.3
33	0.3	-3.8
34	4.5	1.2
35	-0.4	-4.4
36	2.7	-1.4

New compounds follow.
item	molecule	AF4-AF9 inh	Ecoli rRNA inh
37	COc1ccc(S(=O)(=O)Nc2ccc3c(c2)C(=O)N([C@@H](C)CO)C[C@H](C)[C@@H](CN(C)C(=O)C2CCCCC2)OCCCC[C@H](C)O3)cc1	3.6	-3.0
38	Clc1ccccc1Nc1nc(NCC2CC2)nc2ccsc12	-4.0	-38.8
39	NC(Cc1ccc(Cl)cc1)c1csc(Nc2nccc(C(F)(F)F)n2)n1 (configuration not stated)	8.1	-57.6
40	CC(=O)N[C@@H]1CC[C@H](CC(=O)NCc2ccc(Cl)cc2)O[C@@H]1CO	-9.5	1.1
41	C[C@H](CO)N1C[C@H](C)[C@@H](CN(C)Cc2cccc(F)c2)Oc2ncc(C3=CCCCC3)cc2C1=O	8.7	-9.4
42	C[C@@H]1CN([C@H](C)CO)S(=O)(=O)c2ccc(-c3cccc(F)c3)cc2O[C@@H]1CN(C)CC1CC1	3.0	2.4
43	C[C@H]1CCCCO[C@H](CN(C)C)[C@@H](C)CN([C@@H](C)CO)C(=O)c2cc(NC(=O)c3ccncc3)ccc2O1	1.3	0.9
44	COc1cc(C(O)c2nc(-c3ccccc3)cs2)ccc1F (configuration not stated)	-0.9	-33.9
45	COc1cccc(CNC(=O)C[C@H]2CC[C@@H](NC(C)=O)[C@@H](CO)O2)c1	2.2	-1.1
46	CNC[C@H]1OCCCC[C@H](C)Oc2ccc(NC(=O)Nc3ccc4c(c3)OCO4)cc2C(=O)N([C@H](C)CO)C[C@H]1C	9.8	6.2
47	O=S(=O)(c1ccccc1F)N1CC[C@@H]2[C@@H](CO)Nc3ccc(-c4cccc(F)c4)cc3[C@@H]21	11.6	-15.2
48	C[C@H](CO)N1C[C@H](C)[C@H](CN(C)Cc2ccc(Oc3ccccc3)cc2)Oc2ccc(NC(=O)CCCN(C)C)cc2C1=O	18.0	2.4

item	Ecoli rRNA inh OD600	Ecoli rRNA inh RFP
37	-8.0	3.9
38	-63.3	-7.0
39	-76.8	-16.6
40	-8.7	1.0
41	-27.4	14.9
42	4.3	0.3
43	5.3	-1.0
44	-44.8	-8.6
45	7.2	-2.5
46	4.9	-1.2
47	-47.3	33.8
48	-4.9	1.3

The results go on:
item	molecule	AF4-AF9 inh	Ecoli rRNA inh
49	CCCCn1c(O)c2n(c1=O)Cc1ccccc1N=C2c1ccccc1	4.5	5.2
50	CC1(C(=O)NS(=O)(=O)c2cccs2)CCN1C(=O)C1(c2ccc(Cl)cc2)CC1 (configuration not stated)	-1.7	4.7
51	CC1(C(=O)NCC2CC2)CCN1C(=O)C/C=C/c1ccccc1 (configuration not stated)	1.5	0.3
52	CCC(=O)Nc1ccc2c(c1)C(=O)N(C)C[C@H](OC)[C@@H](C)CN[C@@H](C)CO2	-0.5	1.2
53	C[C@H](CO)N1C[C@H](C)[C@H](CN(C)C(=O)Nc2ccc(C(F)(F)F)cc2)Oc2ncc(-c3cccnc3)cc2C1=O	-1.1&-2.8	-3.6&1.0
54	CCC(=O)N1[C@H](CO)[C@@H](c2ccccc2)[C@@H]1CNC(=O)CN1CCOCC1	-2.8	2.8
55	Cc1ccc(S(=O)(=O)Nc2cccc3c2O[C@H](CN(C)Cc2ccc(C(F)(F)F)cc2)[C@@H](C)CN([C@@H](C)CO)C3=O)cc1	2.9	0.5
56	O=C(c1cccnc1)N1CC(=O)N2[C@H](CO)[C@@H](c3ccc(/C=C/c4ccccc4)cc3)[C@H]2C1	27.2*	-2.9
57	C[C@@H]1CCCCO[C@H](CN(C)CC2CCCCC2)[C@H](C)CN([C@@H](C)CO)C(=O)c2cc(NS(=O)(=O)c3cn(C)cn3)ccc2O1	-4.2	-1.7
58	CO[C@@H]1CN(C)C(=O)c2ccc(NC(=O)C3CCOCC3)cc2OC[C@@H](C)N(Cc2cccnc2)C[C@H]1C	-0.2	0.1
59	Cc1cccc(S(=O)(=O)N2CCCCN3[C@H](CO)[C@H](c4ccc(C#CC(C)C)cc4)[C@H]3C2)c1	3.0	-26.9*
60	COc1ccc(CN(C)C[C@@H]2OCCCC[C@H](C)Oc3ccc(NC(=O)Nc4ccc(F)cc4)cc3C(=O)N([C@H](C)CO)C[C@@H]2C)cc1	9.9	-44.9

item	Ecoli rRNA inh OD600	Ecoli rRNA inh RFP
49	-42.1	-15.4
50	17.1	-2.0
51	8.1	-1.2
52	1.8	-2.3
53	-2.6&2.4	-3.3&1.1
54	5.5	-0.9
55	3.5	0.3
56	-1.0	-1.6
57	-0.7	-2.6
58	-1.2	-0.3
59	1.1*	1.9*
60	-59.2	6.1

(listing goes on)
item	molecule	AF4-AF9 inh	Ecoli rRNA inh
61	FC(F)(F)Oc1ccccc1C(c1nnnn1-c1ccc2c(c1)OCCO2)N1CCN(C/C=C/c2ccccc2)CC1 (configuration not stated)	5.2	-1.5
62	CC(C)NC(=O)Nc1cccc2c1O[C@@H](CN(C)Cc1ccc(C(=O)O)cc1)[C@@H](C)CN([C@H](C)CO)C2=O	-2.7	3.9
63	CCOC(=O)[C@]12CCC=C1N(CCC1=CCCCC1)C(=O)[C@H](CC(=O)N1CCSCC1)C2	-2.5	9.6
64	C[C@H](CO)N1C[C@H](C)[C@@H](CN(C)S(C)(=O)=O)Oc2ccc(NC(=O)CCCCCC(=O)Nc3ccccc3N)cc2C1=O	-0.7	0.9
65	Clc1cccc(-c2nc3ccc(Cl)cn3c2Cc2ccccc2)c1	-1.1	-23.3
66	CCNC(=O)[C@@H]1[C@@H](CO)[C@@H]2Cn3c(ccc(-c4ccc(F)cc4)c3=O)[C@H]1N2C	-5.0	5.3

item	Ecoli rRNA inh OD600	Ecoli rRNA inh RFP
61	-7.2	8.2
62	6.5	-1.6
63	5.5	1.3
64	6.6	-1.7
65	-37.0	10.1
66	9.9	-0.1
